Mtb hypoxia inh = inhibitors of hypoxia-regulated fluorescent reporter in Mycobacterium tuberculosis; fluorescence inhibition, % (concentration not given with the values); AID 1159583; hit rate 0.1% among 300,000; M. tuberculosis hypoxia-regulated fluorescent reporter, fluorescence;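 active = 35 to 45% if threefold the growth effect, above 45% if 1.5-fold the growth effect; inactive = the rest, general growth blockers included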;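 note: wells of about 50 µL received 100 nL stock; 0% = vehicle wells and 100% = reference inhibitor wells; whole bacteria with a GFP reporter of the hypoxia response; strong numbers were not always called active; many hits fall short of the cut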
RN4220 kill = S. aureus RN4220 growth inhibition; OD600, 16 h; inhibition, % (concentration not given with the values); hit rate 0.33% among 330,000; AID 1259311;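 active = z-score of -3 or lower and OD600 up to 0.18 on both plates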;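 note: plate controls were untreated cells for no effect and reference antibiotic for full effect; stock transfer was 100 nL into about 80 µL; one replicate is shown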
PrP UTR inh = inhibition of PrP 5' UTR reporter expression. cell-based PrP 5' UTR mRNA reporter, plate reader. inhibition, % (concentration not given with the values). hit rate 0.35% among 340,000;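 active = every replicate at 50% or more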;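 note: 0 = median of the neutral control wells; tested in H4 reporter cells; numbers are from one replicate; inactives centre near -14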
BJeLR viability = kills HRASV12-expressing BJeLR cells | AID 1554 | hit rate 0.17% among 300,000 | inhibition, % (no concentration beside the values) | BJeLR (HRASV12) viability, CellTiter-Glo ATP luminescence, 48 h; reference of the scale not given here;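 active = replicate mean above 50%; inconclusive = above 50% but judged a plate artefact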;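 note: 50 nL library stock added to about 25 µL; numbers are from one replicate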
ugtP null kill = compounds lethal to S. aureus RN4220 ugtP deletion mutant. growth inhibition, % (no concentration beside the values). hit rate 0.54% among 330,000. OD600 growth, 16 h; some inactives read as strong as hits;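 active = z-score under -3 and OD600 up to 0.15 on both plates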;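 note: plate controls were untreated wells for no effect and antibiotic for full effect; wells of about 80 µL received 100 nL stock; the first replicate is given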
Autofluor counter = counter-screen for toxin protease inhibitors: compound fluorescence; compound autofluorescence counterscreen, microsphere flow cytometry; stronger effect = higher value; fluorescence intensity (no concentration beside the values); hit rate 3.1% among 360,000; AID 624483;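 active = at least 3 SD above the mean of all compounds, about 16000 in these data; inconclusive = too few beads counted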;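 note: 100 nL of 1 mM stock went into each well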
Mtb hypoxia inh growth = recorded beside Mtb hypoxia inh, whose call it bears; growth inhibition, %; measured here: M. tuberculosis growth (absorbance);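 0% = vehicle and 100% = reference antibiotic; read after six days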
Starred values were filed as active, the others as inactive. Not a hit list; 4.1% or so of the library scored in one or more.

How did O=C(COC(=O)c1ccccc1Oc1ccccc1)NC1CC1 do in these assays?
Mtb hypoxia inh: -4; RN4220 kill: -6.2; PrP UTR inh: -19; BJeLR viability: -7; ugtP null kill: -20; Autofluor counter: 4378; Mtb hypoxia inh growth: 3

What do the screens show for `COc1ccccc1NS(=O)(=O)c1ccc(C)c(NC(=O)NC2CCCCC2)c1`?
Mtb hypoxia inh: 8; RN4220 kill: 2.2; PrP UTR inh: 2; BJeLR viability: -2; ugtP null kill: -8; Autofluor counter: 1927; Mtb hypoxia inh growth: 3

Results for CC(C)(C)C(=O)c1cn(CC(=O)NCc2ccc3c(c2)OCO3)c2ccccc12 ?
Mtb hypoxia inh: -6; RN4220 kill: -2.4; PrP UTR inh: -13; BJeLR viability: -6; ugtP null kill: -3; Autofluor counter: 4366; Mtb hypoxia inh growth: 4

Results for O=[N+]([O-])c1cc(C=NOCc2c(Cl)cccc2Cl)ccc1N1CCOCC1 ?
Mtb hypoxia inh: 2; RN4220 kill: 6.8; ugtP null kill: 66; Mtb hypoxia inh growth: -9

How did CCN(c1ccccc1)S(=O)(=O)c1ccc(NC(=O)C(C)(C)C)cc1 do in these assays?
Mtb hypoxia inh: 7; RN4220 kill: 6.6; PrP UTR inh: -39; BJeLR viability: -18; ugtP null kill: 6; Autofluor counter: 23889*; Mtb hypoxia inh growth: 1

How did CC(C)(Oc1ccc(Cl)cc1)C(=O)OCc1nc2ccsc2c(=O)[nH]1 do in these assays?
Mtb hypoxia inh: 1; RN4220 kill: 0.9; PrP UTR inh: -5; BJeLR viability: -2; ugtP null kill: 4; Autofluor counter: inconclusive; Mtb hypoxia inh growth: 5

Results for COc1ccc(CN2C(=O)c3ccccc3C2=O)cc1C(=O)O ?
Mtb hypoxia inh: 15; RN4220 kill: 7.0; PrP UTR inh: -14; BJeLR viability: 4; ugtP null kill: 11; Autofluor counter: 3763; Mtb hypoxia inh growth: 3

What do the screens show for `Cc1noc(C)c1C(=O)Nc1nc(-c2cc(F)ccc2F)cs1`?
Mtb hypoxia inh: 8; RN4220 kill: 0.5; PrP UTR inh: -44; ugtP null kill: 2; Autofluor counter: 6880; Mtb hypoxia inh growth: 5

Results for CCOC(=O)C1CSC(CC(=O)Nc2ccc(OC(F)(F)F)cc2)C(=O)N1 (stereo unspecified) ?
Mtb hypoxia inh: 6; RN4220 kill: 2.1; PrP UTR inh: 0; BJeLR viability: 7; ugtP null kill: 4; Autofluor counter: 4850; Mtb hypoxia inh growth: 0

How did Cc1nnc(SCCn2c(N3CCCCCC3)nc3c2c(=O)[nH]c(=O)n3C)s1 do in these assays?
Mtb hypoxia inh: -5; RN4220 kill: 1.1; PrP UTR inh: 7; BJeLR viability: 4; ugtP null kill: 0; Autofluor counter: 4112; Mtb hypoxia inh growth: 8

2 compounds drawn at random from those above:
Results for CC(C)(C)C(=O)c1cn(CC(=O)NCc2ccc3c(c2)OCO3)c2ccccc12 ?
Mtb hypoxia inh: -6; RN4220 kill: -2.4; PrP UTR inh: -13; BJeLR viability: -6; ugtP null kill: -3; Autofluor counter: 4366; Mtb hypoxia inh growth: 4

How did CC(C)(Oc1ccc(Cl)cc1)C(=O)OCc1nc2ccsc2c(=O)[nH]1 do in these assays?
Mtb hypoxia inh: 1; RN4220 kill: 0.9; PrP UTR inh: -5; BJeLR viability: -2; ugtP null kill: 4; Autofluor counter: inconclusive; Mtb hypoxia inh growth: 5

Following part
Results for CCCCN(C(=O)c1ccc2c(c1)NC(=O)CS2)c1ccccc1 ?
Mtb hypoxia inh: 16; RN4220 kill: 3.6; PrP UTR inh: -14; ugtP null kill: 3; Autofluor counter: 3710; Mtb hypoxia inh growth: 8

How did CC(=O)c1ccccc1OCc1ccc(C(=O)c2ccccc2)cc1 do in these assays?
Mtb hypoxia inh: 0; RN4220 kill: 10.0; PrP UTR inh: -48; BJeLR viability: 5; ugtP null kill: 16; Autofluor counter: 3869; Mtb hypoxia inh growth: 10

What do the screens show for `COc1cccc(Cn2c(=O)sc3ccccc3c2=O)c1`?
Mtb hypoxia inh: 2; RN4220 kill: 2.7; PrP UTR inh: -18; BJeLR viability: 0; ugtP null kill: 4; Autofluor counter: 4074; Mtb hypoxia inh growth: 7

What do the screens show for `CN(CCO)c1ccc(C=NNc2ccc([N+](=O)[O-])cc2S(=O)(=O)Nc2ccccc2C(=O)O)cc1`?
Mtb hypoxia inh: 17; RN4220 kill: -3.7; ugtP null kill: 12; Autofluor counter: 3468; Mtb hypoxia inh growth: 2

What do the screens show for `CNC(=O)COC(=O)c1ccccc1Nc1ccccc1`?
Mtb hypoxia inh: -9; RN4220 kill: -3.1; PrP UTR inh: -16; BJeLR viability: -13; ugtP null kill: -4; Autofluor counter: 4476; Mtb hypoxia inh growth: 12

Results for Cc1ccc(CN2C(=O)CCC2C(=O)NCCN2CCN(c3cccc(Cl)c3)CC2)cc1 (stereo unspecified) ?
Mtb hypoxia inh: 3; RN4220 kill: 1.5; PrP UTR inh: -17; BJeLR viability: -2; ugtP null kill: 7; Autofluor counter: 5242; Mtb hypoxia inh growth: 7

What do the screens show for `O=C(Nc1cccnc1)C1=NN(C2CCS(=O)(=O)C2)C(=O)CC1` (stereo unspecified)?
Mtb hypoxia inh: 12; RN4220 kill: 3.9; PrP UTR inh: -6; BJeLR viability: 3; ugtP null kill: -1; Autofluor counter: 6219; Mtb hypoxia inh growth: 11

How did Cc1cccc(N=C2C(=O)Nc3c(Cl)cccc32)c1 do in these assays?
Mtb hypoxia inh: 12; RN4220 kill: 0.4; PrP UTR inh: -16; BJeLR viability: -6; ugtP null kill: 4; Autofluor counter: 4243; Mtb hypoxia inh growth: 6

How did CCOC(=O)c1sc2nc[nH]c(=O)c2c1C do in these assays?
Mtb hypoxia inh: 3; RN4220 kill: 7.0; PrP UTR inh: -23; BJeLR viability: -7; ugtP null kill: -8; Autofluor counter: 2413; Mtb hypoxia inh growth: -4

What do the screens show for `O=C(NCc1ccco1)C1Cc2cc(Cl)ccc2O1` (stereo unspecified)?
RN4220 kill: 1.8; PrP UTR inh: -15; BJeLR viability: -13; ugtP null kill: -1; Autofluor counter: 3927

Results for CCN1CCN(CCCNC(=O)c2ccc(NC(=O)C3=C(C)OCCS3)cc2)CC1 ?
Mtb hypoxia inh: 1; RN4220 kill: 4.7; PrP UTR inh: -14; BJeLR viability: -22; ugtP null kill: 6; Autofluor counter: 5315; Mtb hypoxia inh growth: -2

How did COc1ccccc1Nc1ncc(C(C)=O)c(C)n1 do in these assays?
Mtb hypoxia inh: 17; RN4220 kill: -9.1; PrP UTR inh: -36; BJeLR viability: 2; ugtP null kill: -7; Autofluor counter: 2843; Mtb hypoxia inh growth: 11

Results for CN(CCc1ccccn1)C(=O)c1ccc(OC(F)(F)F)cc1 ?
Mtb hypoxia inh: 5; RN4220 kill: 12; PrP UTR inh: 3; BJeLR viability: -23; ugtP null kill: 5; Autofluor counter: 4876; Mtb hypoxia inh growth: 3

How did COc1ccc(/C=C2\COc3ccccc3C2=O)c(OC)c1 do in these assays?
Mtb hypoxia inh: -3; RN4220 kill: 6.1; PrP UTR inh: -20; BJeLR viability: -3; ugtP null kill: 9; Autofluor counter: 3855; Mtb hypoxia inh growth: 1

What do the screens show for `Cc1cc(Cl)c(S(=O)(=O)Nc2ccc(S(=O)(=O)N3CCOCC3)cc2)cc1OCC(N)=O`?
Mtb hypoxia inh: -2; RN4220 kill: 4.7; PrP UTR inh: -14; BJeLR viability: -1; ugtP null kill: 8; Autofluor counter: 4037; Mtb hypoxia inh growth: 9

What do the screens show for `O=C(Nc1ccc(Br)cc1)N1CCCCCC1`?
Mtb hypoxia inh: 8; RN4220 kill: -1.1; PrP UTR inh: -33; BJeLR viability: 9; ugtP null kill: 1; Autofluor counter: 5986; Mtb hypoxia inh growth: 17

What do the screens show for `NC(=O)c1nsc(C(=O)N(c2cccc(F)c2)C(C(=O)NCc2ccccc2)c2ccc(O)cc2)c1N` (stereo unspecified)?
Mtb hypoxia inh: -3; RN4220 kill: -0.5; PrP UTR inh: -10; BJeLR viability: -13; ugtP null kill: 9; Autofluor counter: 6272; Mtb hypoxia inh growth: 4

What do the screens show for `O=C(CCNC(=O)c1ccccc1)NN=Cc1ccc([N+](=O)[O-])cc1`?
Mtb hypoxia inh: 0; RN4220 kill: 0.4; ugtP null kill: 2; Mtb hypoxia inh growth: 0

What do the screens show for `CCOc1ccc(NC(=O)CCN2C(=O)c3ccccc3C2=O)cc1`?
Mtb hypoxia inh: 20; RN4220 kill: -0.3; PrP UTR inh: -16; BJeLR viability: -10; ugtP null kill: 4; Autofluor counter: 3108; Mtb hypoxia inh growth: 6

Results for CCC(CC)NC(=O)Cc1ccc(F)cc1 ?
Mtb hypoxia inh: 14; RN4220 kill: 4.0; PrP UTR inh: -56; BJeLR viability: -4; ugtP null kill: 3; Autofluor counter: 3897; Mtb hypoxia inh growth: 1

Results for CC(C)n1c(SCc2cc(=O)[nH]c3ccccc23)nc2c1c(=O)n(C)c(=O)n2C ?
Mtb hypoxia inh: 2; RN4220 kill: 7.3; PrP UTR inh: -4; BJeLR viability: 3; ugtP null kill: 11; Autofluor counter: 10447; Mtb hypoxia inh growth: 4

How did CSc1ccc(CNC(=O)c2ccc(NC(=O)C3=CSCCO3)cc2)cc1 do in these assays?
Mtb hypoxia inh: -9; RN4220 kill: 0.1; PrP UTR inh: -24; BJeLR viability: 6; ugtP null kill: -5; Autofluor counter: 5762; Mtb hypoxia inh growth: 10

What do the screens show for `CCOC(=O)C1=CN(Cc2cccc(-c3cccnc3)c2)S(=O)(=O)N(CC)C1C` (stereo unspecified)?
Mtb hypoxia inh: 5; RN4220 kill: 4.9; PrP UTR inh: -13; ugtP null kill: 9; Autofluor counter: 3607; Mtb hypoxia inh growth: 10

Results for O=C(NCCc1ccccc1F)C1CCC(=O)N(Cc2ccc(Cl)cc2)C1 (stereo unspecified) ?
Mtb hypoxia inh: -1; RN4220 kill: -4.3; PrP UTR inh: -9; BJeLR viability: 3; ugtP null kill: 5; Autofluor counter: 4280; Mtb hypoxia inh growth: -6

Results for Fc1ccccc1CNc1ncnc2sccc12 ?
Mtb hypoxia inh: 7; RN4220 kill: 4.0; PrP UTR inh: -14; BJeLR viability: 26; ugtP null kill: 2; Autofluor counter: 4646; Mtb hypoxia inh growth: 7

How did COc1cc(C(Nc2ccc3c(c2)OCO3)C(=O)NC2CCCCC2)cc(OC)c1OC (stereo unspecified) do in these assays?
RN4220 kill: 0.7; PrP UTR inh: 0; BJeLR viability: 5; ugtP null kill: -2; Autofluor counter: 3995

How did Cc1cc(C)c2c(N)c(C(=O)NN3CC(=O)N(c4ccccc4F)CC3=O)sc2n1 do in these assays?
Mtb hypoxia inh: -2; RN4220 kill: -4.9; PrP UTR inh: -6; BJeLR viability: 2; ugtP null kill: -3; Autofluor counter: 2808; Mtb hypoxia inh growth: 8

How did Cc1ccccc1N1CCN(Cc2c(C#N)c3ccccc3n2C)CC1 do in these assays?
Mtb hypoxia inh: -7; RN4220 kill: -6.9; PrP UTR inh: -27; BJeLR viability: 6; ugtP null kill: 75; Autofluor counter: 23866*; Mtb hypoxia inh growth: -3

Results for CCOc1ccc(NC(=O)CN(C)C(=O)C(C)Oc2ccc(Cl)cc2)cc1OCC (stereo unspecified) ?
Mtb hypoxia inh: 2; RN4220 kill: 1.9; PrP UTR inh: 9; ugtP null kill: 9; Mtb hypoxia inh growth: 7

What do the screens show for `COC(=O)C1C(=O)NC(SC)=C(C#N)C1c1ccccc1F` (stereo unspecified)?
Mtb hypoxia inh: 10; RN4220 kill: 1.7; PrP UTR inh: -30; BJeLR viability: 0; ugtP null kill: 1; Autofluor counter: 9741; Mtb hypoxia inh growth: 0

What do the screens show for `C=CCOC(=O)C1=C(C)OC(N)=C(C#N)C1c1c(C)nn(-c2ccccc2)c1Cl` (stereo unspecified)?
RN4220 kill: 1.3; PrP UTR inh: -11; ugtP null kill: 0; Autofluor counter: 4793

Results for CCOC(=O)C(NC(=O)c1ccccc1)(Nc1cc(C)on1)C(F)(F)F (stereo unspecified) ?
Mtb hypoxia inh: 14; RN4220 kill: 6.1; PrP UTR inh: -36; BJeLR viability: 9; ugtP null kill: -1; Autofluor counter: 9605; Mtb hypoxia inh growth: 1

How did C[N+]([O-])=CC1C(=O)CCCC1=O do in these assays?
Mtb hypoxia inh: 7; RN4220 kill: 2.3; ugtP null kill: -7; Mtb hypoxia inh growth: 15

Source: PubChem
